Screening data deposited in PubChem BioAssay by several laboratories.
Sa RN4220 lethal: S. aureus RN4220 growth inhibition; OD600, 16 h; inhibition, % (concentration not given with the values); actives 0.33% (n = 330,000);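 active = z-score of -3 or lower and OD600 up to 0.18 on both plates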;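 also: plate controls were untreated cells for no effect and reference antibiotic for full effect; stock transfer was 100 nL into about 80 µL; one replicate is shown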
PrP UTR inh: inhibition of PrP 5' UTR reporter expression; inhibition, % (concentration not given with the values); actives 0.35% (n = 340,000); cell-based PrP 5' UTR mRNA reporter, plate reader; AID 488862;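 active = every replicate at 50% or more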;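 also: 0 = median of the neutral control wells; tested in H4 reporter cells; numbers are from one replicate; inactives centre near -14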
Sa ugtP lethal: kills S. aureus RN4220 lacking UgtP. S. aureus RN4220 ugtP deletion, OD600 growth, 16 h; some inactives read as strong as hits. growth inhibition, % (concentration not given with the values). actives 0.54% (n = 330,000);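 active = z-score under -3 and OD600 up to 0.15 on both plates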;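 also: plate controls were untreated wells for no effect and antibiotic for full effect; wells of about 80 µL received 100 nL stock; the first replicate is given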
BJeLR lethal: BJeLR cell viability loss | BJeLR (HRASV12) viability, CellTiter-Glo ATP luminescence, 48 h; reference of the scale not given here | actives 0.17% (n = 300,000) | inhibition, % (no concentration beside the values);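 active = replicate mean above 50%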;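 also: 50 nL library stock added to about 25 µL; numbers are from one replicate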
Mtb hypoxia inh: reduces hypoxia-regulated biosensor signal in M. tuberculosis; M. tuberculosis hypoxia-regulated fluorescent reporter, fluorescence; fluorescence inhibition, % (test concentration not listed); actives 0.1% (n = 300,000); AID 1159583;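 active = 35 to 45% if threefold the growth effect, above 45% if 1.5-fold the growth effect; inactive = the rest, general growth blockers included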;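 also: wells of about 50 µL received 100 nL stock; 0% = vehicle wells and 100% = reference inhibitor wells; whole bacteria with a GFP reporter of the hypoxia response; strong numbers were not always called active; many hits fall short of the cut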
Bead autofluor: counter-screen for toxin protease inhibitors: compound fluorescence. compound autofluorescence counterscreen, microsphere flow cytometry; stronger effect = higher value. fluorescence intensity (test concentration not listed). actives 3.1% (n = 360,000). AID 624483;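 active = at least 3 SD above the mean of all compounds, about 16000 in these data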;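 also: 100 nL of 1 mM stock went into each well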
Mtb hypoxia inh growth: also measured in Mtb hypoxia inh; calls as there; growth inhibition, %; measured here: M. tuberculosis growth (absorbance);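 0% = vehicle and 100% = reference antibiotic; read after six days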
* marks the source's active call; other numbers are inactive results; . = not tested or not shown.

The first 5 compounds, to show the layout:
SMILES | Sa RN4220 lethal | PrP UTR inh | Sa ugtP lethal | BJeLR lethal | Mtb hypoxia inh | Mtb hypoxia inh growth | Bead autofluor
COCC1CCCCN1C(=O)CCCn1nnnc1CN1CCC(C)CC1 (stereo not given) | -0.6 | -5 | 0 | 4 | -3 | 3 | 6382
O=C(Nc1nc(-c2ccccc2)cs1)C1CCCCN1S(=O)(=O)c1ccc(Cl)cc1 (stereo not given) | -1.2 | -3 | -10 | 6 | -2 | 1 | 16281*
O=C(CNC(=O)c1ccc2c(=O)n3c(nc2c1)CCC3)Nc1ccc(F)c(F)c1 | 1.1 | -13 | -3 | -1 | -7 | 3 | 6568
CCc1ccccc1Nc1cc(C(=O)NCc2ccccn2)c2ccccc2n1 | 3.9 | -21 | 6 | 1 | 9 | 1 | 2452
O=S(=O)(Nc1ccc(F)cc1)c1cccc2nsnc12 | -5.5 | -18 | 1 | -6 | -1 | 7 | 3797

The list itself (from the top)
SMILES | Sa RN4220 lethal | PrP UTR inh | Sa ugtP lethal | BJeLR lethal | Mtb hypoxia inh | Mtb hypoxia inh growth | Bead autofluor
COCC1CCCCN1C(=O)CCCn1nnnc1CN1CCC(C)CC1 (stereo not given) | -0.6 | -5 | 0 | 4 | -3 | 3 | 6382
O=C(Nc1nc(-c2ccccc2)cs1)C1CCCCN1S(=O)(=O)c1ccc(Cl)cc1 (stereo not given) | -1.2 | -3 | -10 | 6 | -2 | 1 | 16281*
O=C(CNC(=O)c1ccc2c(=O)n3c(nc2c1)CCC3)Nc1ccc(F)c(F)c1 | 1.1 | -13 | -3 | -1 | -7 | 3 | 6568
CCc1ccccc1Nc1cc(C(=O)NCc2ccccn2)c2ccccc2n1 | 3.9 | -21 | 6 | 1 | 9 | 1 | 2452
O=S(=O)(Nc1ccc(F)cc1)c1cccc2nsnc12 | -5.5 | -18 | 1 | -6 | -1 | 7 | 3797
COc1ccc(S(=O)(=O)N2CCC(N3CCN(c4ccccc4OC)CC3)CC2)cc1 | 4.6 | -17 | -3 | -4 | 11 | 3 | 3251
CC(Oc1ccc(Br)cc1Br)C(=O)NC1CCCC1 (stereo not given) | 6.6 | . | 4 | 2 | 12 | 8 | .
Cc1cc(Cl)ccc1NC(=S)NCc1ccccc1Cl | 0.0 | -74 | -16 | -12 | 1 | -3 | 1885
Cc1ccc(C=Nn2c(C3CCCCC3)n[nH]c2=S)o1 | 5.3 | . | -1 | . | 7 | 3 | .
Cc1ccc(N(CCC(=O)O)S(=O)(=O)c2ccccc2)cc1 | 6.1 | -14 | 11 | 3 | 5 | 2 | 1983
O=C(CN1CCCCCC1)N1c2ccccc2Sc2ccc(C(F)(F)F)cc21 | 2.3 | -6 | 28 | -3 | -8 | 3 | 12784
COC(=O)c1cccc(NC(=O)c2ccco2)c1 | -10 | 4 | -7 | 9 | 1 | 6 | 2465
O=C(CN1C(=O)C(=O)c2ccccc21)c1ccc(Cl)cc1 | 3.4 | -15 | 1 | -7 | 6 | 10 | 3736
Cc1ccc(-n2nc3c(c2NC(=O)C2CC2)CS(=O)(=O)C3)cc1 | -0.6 | -15 | 0 | 7 | 7 | 6 | 4837
C=CCN=c1scc(-c2ccco2)n1/N=C/c1ccc(O)c(O)c1O | . | -28 | . | -13 | . | . | 3659
CCn1cc(C(=O)NCc2ccc3c(c2)OCO3)c(=O)c2cc(S(=O)(=O)N3CCOCC3)ccc21 | -0.4 | -11 | 0 | 7 | 2 | 13 | 21213*
O=C1NC(=S)SC1=Cc1cccs1 | 41 | -11 | 28 | . | -3 | -1 | 3365
COC(=O)Cn1cc(C(=O)OC)cc(Br)c1=O | 16 | -13 | 2 | -10 | 0 | 8 | 3187
Cn1cnc([N+](=O)[O-])c1Sc1ncnc2nc[nH]c12 | 3.1 | 1 | 3 | 69* | . | . | 2902
O=C(CCc1cccc(Cl)c1)N1CCCC(Nc2ccccc2)C1 (stereo not given) | . | -23 | . | -7 | . | . | 4786
COc1ccc(/C=C2\SC(=O)N(CCn3cnnn3)C2=O)cc1 | 6.6 | -8 | -8 | -13 | 4 | -6 | 2440
O=C(Nc1nnc(-c2ccc(Cl)s2)o1)C1CC1 | 1.4 | -16 | -4 | -10 | 16 | 17 | 2068
C[C@@]12C(=O)N(c3ccc(Cl)cc3)C(=O)N1C1c3ccccc3OCC1C2c1ccccc1 (stereo not given in full) | 9.8 | . | -15 | . | 6 | 1 | .
O=P(O)(c1ccccc1)c1ccccc1O | 0.6 | -9 | 13 | 9 | . | . | 4160
CCOc1cc(C2NC(=O)N(C)C(C)=C2C(=O)OC)cc(Br)c1O (stereo not given) | 3.4 | -18 | 8 | -9 | 9 | 10 | 6636
COc1ccc(S(=O)(=O)NC2(C(F)(F)F)NC(=O)N(CCc3ccc(OC)c(OC)c3)C2=O)cc1 (stereo not given) | 0.1 | -20 | 8 | -2 | -5 | 5 | 3580
N/C(=N\OC(=O)CCCOc1ccccc1)c1ccncc1 | 4.3 | 1 | 9 | -4 | 7 | 4 | 2511
Fc1ccc(F)c(NC(=S)NCCc2ccccc2)c1 | 1.2 | -29 | 4 | 29 | 1 | -2 | 4264
CC1=NN(C(=O)CSCc2ccccc2)C(O)(c2ccc(F)cc2)C1 (stereo not given) | -2.4 | -7 | -7 | 2 | 8 | 2 | 3473
COc1cccc(CNC(=O)c2nnn(CC(=O)Nc3cccc(C)c3)c2N)c1 | 1.6 | -14 | 1 | 2 | 3 | -3 | 5748
CN1CCCC(OC(=O)c2cccc(Br)c2)C1 (stereo not given) | 1.9 | -23 | 11 | -6 | 4 | -3 | 3952
CC(C)(C)NCC(O)(c1ccc(Cl)cc1)c1ccc(Cl)cc1 | -1.7 | -14 | -10 | 9 | 6 | 5 | 4301
CC(C)c1ccc(C(C(=O)NC2CCCCC2)N(C(=O)c2ccccn2)c2cccnc2)cc1 (stereo not given) | 2.8 | -8 | -2 | -3 | -6 | -8 | 3444
CCc1c(C)sc(NC(=S)N2CCN(S(C)(=O)=O)CC2)c1C(=O)OC | 3.1 | -2 | 10 | 1 | 3 | 4 | 4693
CCc1cc2c(=O)c(-c3nc(C)cs3)c(CCCC(=O)O)oc2cc1O | 6.8 | -14 | 3 | 6 | 5 | 6 | 2591
O=C(/C=C/c1cccnc1)c1cc(F)ccc1O | 2.5 | -11 | 5 | 18 | -6 | 6 | 3547
O=C(Nc1ccccc1Sc1ccccc1)c1ccccc1F | -6.1 | -9 | 57 | -10 | 7 | 3 | 4474
CN/C=C(/Cl)P(=O)(OC(C)C)OC(C)C | 2.1 | -6 | 6 | -1 | 3 | -11 | 4620
O=C(O)c1cn(Cc2ccccc2)c2ccccc2c1=O | 0.0 | -20 | -4 | 0 | 18 | 1 | 2181
COc1ccccc1N1CCN(Cc2cc(Br)c(O)c3ncccc23)CC1 | -8.1 | 19 | -5 | 4 | 0 | 7 | 4015
O=C1c2[nH]nc(-c3ccccc3O)c2C(c2cccc(Cl)c2)N1CC1CCCO1 (stereo not given) | 14 | -8 | -17 | -4 | 2 | 4 | 22113*
CN(C)CCN=Cc1c(O)n(-c2cccc3ccccc23)c(=O)[nH]c1=O | 0.1 | -24 | 1 | -4 | -9 | -1 | 6273
O=C(Cc1ccccc1F)Nc1cc(Cl)ccc1N1CCCC1 | 1.4 | -33 | -1 | -1 | 13 | 11 | 5409
O=C(NCc1ccccc1F)c1cccs1 | 8.3 | . | 9 | 2 | 15 | 9 | 11119
CCc1nnc(NC(=O)CCC(=O)NCC2CCCO2)s1 (stereo not given) | -2.8 | -26 | 0 | -7 | . | . | 3610
CCOc1cc(CN2CCN(c3ncccn3)CC2)ccc1OC | 0.4 | -8 | -2 | 15 | 17 | 3 | 3068
O=C(O)CC(SCc1ccc(C(=O)O)o1)C(=O)O (stereo not given) | -5.7 | -4 | -2 | -11 | . | . | 3535
COc1ccc(C(=O)n2c(-c3ccco3)nc3ccccc32)cc1 | -2.9 | -71 | 0 | 15 | . | . | 4818
COc1ccc(C(=O)Nc2ccnn2C2CCN(CC3CC=CCC3)CC2)cc1 (stereo not given) | -2.2 | -10 | 5 | -6 | 8 | 3 | 6841
COc1cccc(NC(=O)CSc2ccccn2)c1 | 3.4 | -29 | -3 | -4 | -3 | 8 | 5878
CCN1C(=O)/C(=C2/Sc3ccccc3N2CC)SC1=S | 4.3 | -9 | 4 | 1 | 11 | 12 | 3992
CN(C)C(=O)Cn1c(SCC(=O)NC2CCCCC2)nc2ccccc21 | 5.2 | -19 | 5 | 4 | 6 | 4 | 10708
N#Cc1ccccc1NC(=S)NC(=O)c1cccnc1 | 3.6 | -18 | 8 | 24 | 9 | 3 | 3266
O=C(NN1C(=O)c2ccccc2NC1c1cccnc1)c1ccccc1 (stereo not given) | 7.0 | -17 | 3 | 11 | 5 | 7 | 3315
CCOC(=O)C1=C(C)NC(SC(C)=O)=NC1c1ccc(OC(C)=O)c(OC)c1 (stereo not given) | 0.6 | -25 | 5 | -1 | . | . | 4349
CNc1ncnc2c1ncn2C1OC(CO)C(O)C1O (stereo not given) | 9.5 | . | -1 | . | . | . | .
CCn1c(NC(=O)c2ccccc2)nc2ccccc21 | 6.5 | -28 | -13 | 4 | -11 | 3 | .
Cc1cccc(C(=O)OCC(=O)c2ccc3c(c2)OCO3)c1O | 1.9 | -98 | 7 | -1 | 2 | -7 | 7174
COC(=O)NCC(c1cccnc1)N1CCN(c2ccccc2F)CC1 (stereo not given) | -6.7 | -30 | 3 | -3 | 1 | -5 | 4402
CCN(CC)CCN(C(=O)c1ccc2c(c1)OCCO2)c1nc2cc3c(cc2s1)OCO3 | -0.3 | -23 | 23 | 3 | 3 | 12 | 5551
(further entries)
SMILES | Sa RN4220 lethal | PrP UTR inh | Sa ugtP lethal | BJeLR lethal | Mtb hypoxia inh | Mtb hypoxia inh growth | Bead autofluor
O=C(NN=C1CCCC1)c1ccn[nH]1 | 1.4 | -34 | 3 | -7 | 7 | -1 | 2114
O=C(CCCn1cnc2ccccc2c1=O)Nc1ccccc1F | 1.5 | -6 | 4 | 5 | 12 | 9 | 3837
CC1(C)CCc2cc(-c3ccnc(=S)[nH]3)ccc2O1 | -0.3 | -18 | 6 | 13 | 10 | 1 | 6939
O=C(N/N=C/c1c(Cl)cccc1Cl)c1ccc(F)cc1 | . | -21 | . | 9 | . | . | 10632
C=CCNC(=O)C(C(=O)OCC)C1CCCCC1 (stereo not given) | -0.2 | -16 | 9 | -2 | . | . | 4574
CC(=O)NS(=O)(=O)c1ccc(NC(=O)C2c3ccccc3Oc3ccccc32)cc1 | 1.5 | -6 | 6 | 2 | 11 | 9 | 2542
Cc1nc2[nH]c(=O)c3c(n2n1)NC1=C(C(=O)CC(C)(C)C1)C3c1ccccc1 (stereo not given) | 4.6 | -16 | -3 | -10 | -4 | 11 | 5222
Cn1c(SCC(=O)c2c(N)n(C)c(=O)n(C)c2=O)nnc1-c1ccc(F)cc1 | 4.5 | -14 | 6 | 4 | -12 | -10 | 2469
CC[C@]12c3[nH]c4cc(CCC(=O)N(C)C)ccc4c3CCN1C(=O)[C@@H](CC(=O)NCc1ccco1)C[C@@H]2C(=O)N1CCN(C(=O)c2ccco2)CC1 | 3.8 | 6 | -2 | . | -25 | 0 | 4041
COc1cc(OC)cc(C(=O)NNc2nc3cc4c(cc3s2)OCO4)c1 | -9.8 | -4 | -13 | 2 | 13 | 8 | 5659
Nc1ccc(C(=O)NN=Cc2cc(N=Nc3cccc4ccccc34)ccc2O)cc1 | -0.4 | . | 0 | . | 19 | 18 | .
CCOC(=O)CC(=O)CSc1nnc2c(n1)[nH]c1ccccc12 | 1.3 | -49 | -1 | 0 | 4 | 15 | 4123
Cc1nc(CNS(=O)(=O)c2cc(F)ccc2F)cs1 | 0.8 | -15 | 1 | 9 | 4 | 9 | 7562
CC[C@H]1C(c2ccc(F)cc2)=NN(c2ccccc2)[C@@H]1CO | -3.2 | -32 | -10 | . | -1 | 2 | 3877
O=C(CSc1nnc(CNC(=O)c2c(F)cccc2Cl)o1)NCc1ccc2c(c1)OCO2 | 0.3 | -15 | 2 | 9 | . | . | 4414

Whole records, quoted from the list.
`CC(C)(C)NCC(O)(c1ccc(Cl)cc1)c1ccc(Cl)cc1` is listed as Sa RN4220 lethal = -1.7; PrP UTR inh = -14; Sa ugtP lethal = -10; BJeLR lethal = 9; Mtb hypoxia inh = 6; Mtb hypoxia inh growth = 5; Bead autofluor = 4301
`O=C(N/N=C/c1c(Cl)cccc1Cl)c1ccc(F)cc1` is listed as Sa RN4220 lethal = .; PrP UTR inh = -21; Sa ugtP lethal = .; BJeLR lethal = 9; Mtb hypoxia inh = .; Mtb hypoxia inh growth = .; Bead autofluor = 10632
